High-throughput results: PubChem BioAssay, National Center for Advancing Translational Sciences (NCATS)
TDP1 inh = qHTS Assay for Inhibitors of Tyrosyl-DNA Phosphodiesterase (TDP1). Tyrosyl-DNA phosphodiesterase 1 (Homo sapiens), Q9NUW8. recombinant TDP1, AlphaScreen DNA substrate cleavage. Potency, µM (doses to about 130 µM), inactives show at the top dose activity change, negative = inhibition, most hits filed as inhibitors. 0.28% of 350,000 active. AID 485290, 2010; note: nearly all actives have a fitted effect of over 40% in size
Target sequence (Q9NUW8 whole entry, looked up): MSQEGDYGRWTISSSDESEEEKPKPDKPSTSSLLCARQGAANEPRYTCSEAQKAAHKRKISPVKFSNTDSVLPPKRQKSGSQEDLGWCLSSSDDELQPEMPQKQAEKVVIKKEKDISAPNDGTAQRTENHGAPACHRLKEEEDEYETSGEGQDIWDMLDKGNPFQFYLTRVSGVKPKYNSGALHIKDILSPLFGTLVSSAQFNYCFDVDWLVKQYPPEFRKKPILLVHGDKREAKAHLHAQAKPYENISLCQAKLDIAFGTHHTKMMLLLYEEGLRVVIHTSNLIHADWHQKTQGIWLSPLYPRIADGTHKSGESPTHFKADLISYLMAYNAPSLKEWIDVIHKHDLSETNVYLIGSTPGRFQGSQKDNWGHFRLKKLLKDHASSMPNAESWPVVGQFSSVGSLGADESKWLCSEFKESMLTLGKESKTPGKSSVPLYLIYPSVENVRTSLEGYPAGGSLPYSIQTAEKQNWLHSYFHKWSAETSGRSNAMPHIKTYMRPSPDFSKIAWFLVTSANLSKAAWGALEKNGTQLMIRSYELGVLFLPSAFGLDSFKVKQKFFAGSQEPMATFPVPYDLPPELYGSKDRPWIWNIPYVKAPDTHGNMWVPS
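E. coli-derived human Tdp1, 1 nM final. Cpd preinc 15 min RT; substrate 15 nM final, 5 min RT; AS bead mix 10 ug/ml final, 10 min RT. Signal loss = tyrosine-FITC cleavage. No-enzyme wells = max signal.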
N370S GC mod = qHTS Assay for Inhibitors and Activators of N370S glucocerebrosidase as a Potential Chaperone Treatment of Gaucher Disease; N370S GC spleen homogenate, 4MU-glucoside fluorescence; Potency, µM (titrated, usually from 59.4 µM), for inactives: at the top dose activity change, negative = inhibition, hits mostly inhibitors; 0.092% of 330,000 active; AID 2101, 2009;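 note: 0% = full enzyme activity and -100% = no enzyme basal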
Numbers without * were called inactive; ? = inconclusive; nt = no result given; [ ] = dose if it differs, or a comment. Calls come from the whole dose curve; as a rule, active = well fitted curve in the direction sought with a large enough effect; inconclusive = small, poorly fitted or top-dose-only effect, or another doubt; inactive = no such curve, though single readings can be large; an effect the other way counts as inactive or inconclusive. Unless noted, % is set by controls: 0 for no effect and ±100 for the full control effect; potency is the fitted concentration of half-maximal effect. Some of the compounds tested, and most or all hits are left out here.

SMILES	TDP1 inh	N370S GC mod
O=C(O)CCCCCN1C(=O)C(O)=C(C(=O)/C=C/c2ccccc2)C1c1cccc([N+](=O)[O-])c1 (centres undefined)	4.8%	-6.4%
COC(=O)c1ccccc1NC(=O)CSc1nccn1C	8.6%	?
CCC(C)COC(=O)c1ccc(C(=O)O)cc1 (centres undefined)	5.9%	10.0%
Cc1c(Cl)c(C(=O)NNC(=S)NCc2ccco2)nn1C	7.7%	3.4%
COc1ccc(S(=O)(=O)Nc2c(C)cc(C)cc2C)c2cccnc12	nt	-5.7%
CCOC(=O)C1=C(CNCCOc2ccc(OC)cc2)NC(=O)NC1c1ccc2c(c1)OCO2 (centres undefined)	8.9%	-5.2%
CC(CNC(=O)c1ccc(OC2CCN(Cc3ccccn3)CC2)cc1)Oc1cccnc1 (centres undefined)	0.8%	4.0%
CCOC(=O)c1[nH]c2ccccc2c1NC(=O)CCN1CCN(C(=O)OCC)CC1	2.9%	-9.7%
COc1ccc(CCCC(=O)NC(C)c2ccccc2)cc1 (centres undefined)	-0.6%	14.2%
c1ccc(CSCc2cn3ccccc3n2)cc1	-3.6%	-5.5%
CCCNC(=S)NNC(=O)c1cccs1	0.0%	11.0%
CC(Oc1ccc(Br)cc1)C(=O)O/N=C(\N)c1ccncc1 (centres undefined)	-0.8%	-0.8%
CCN1C(=O)CC(N2CCC(Nc3ccc(F)cc3)CC2)C1=O (centres undefined)	4.3%	-4.3%
CN(C)c1cc(NC(=O)CN2CCOCC2)c2ccccc2n1	1.2%	19.6%
COc1ccc(-c2nc(-c3cccc([N+](=O)[O-])c3O)cc(=O)o2)cc1OC	-1.9%	-9.2%
O=C(O)c1nc(N2CCOCC2)nc(N2CCOCC2)n1	-10.0%[56.1 µM]	5.2%
COc1cc(CN2CCN(Cc3ccccc3C(F)(F)F)CC2)cc(OC)c1OC	nt	-8.4%
COC(=O)c1ccccc1OCCN1CCCCCC1	-3.7%	15.4%
CN1C(=O)SC(Nc2cccc3ccccc23)C1=O (centres undefined)	5.5%	4.3%
Cc1ccc(S(=O)(=O)/C(=C/Cl)NC(=O)c2ccccc2)cc1	5.6%	-4.8%
CC1CC1C(=O)N(CCC1=CCCCC1)c1c(N)n(Cc2ccccc2)c(=O)[nH]c1=O (centres undefined)	nt	-1.0%
COc1ccc2c(CC(=O)Nc3nccs3)coc2c1	2.5%	-12.0%
O=C(CCCN1C(=O)c2ccccc2C1=O)N1CCN(c2ccccn2)CC1	4.3%	-11.1%
CC(C)(C)C(=O)Nc1ccccc1C(=O)Nc1ccccn1	2.4%	-1.0%
CC1Cc2ccccc2N1C(=O)Cn1cnc2c1c(=O)n(C)c(=O)n2C (centres undefined)	5.3%	-4.8%

New compounds follow:
SMILES	TDP1 inh	N370S GC mod
Oc1ccc(C[C@H]2CNCCN2CC2CCCCC2)cc1	-4.8%	-19.9%
Cc1ccc2cc(CCNC(=O)CC(C)C)c(=O)[nH]c2c1	0.0%	3.9%
CC1Sc2ccc(C(=O)Nc3ncccc3O)cc2NC1=O (centres undefined)	-17.1%	-12.9%
COc1cc(NC(=O)[C@H]2CCCN2S(=O)(=O)c2cccc3cccnc23)cc(OC)c1OC	-0.6%	7.6%
CCN[C@@H]1CN(CCCOC)S(=O)(=O)c2sc(S(N)(=O)=O)cc21	12.8%[21 µM]	12.5%[21.6 µM]
N#Cc1ccc(OCC(=O)NCC2(N3CCCCC3)CCCCC2)cc1	1.6%	-0.9%
COc1ccc(C(=O)C2CCN(C(=S)NCCc3ccc(OC)c(OC)c3)CC2)cc1	6.2%	10.9%
CC1(C)Cc2c(sc3nc4n(c(=O)c23)CCC4)CO1	2.1%	-3.3%
CC(OC(=O)CSc1ccc([N+](=O)[O-])cc1)C(=O)NCc1ccco1 (centres undefined)	-0.3%	-0.2%
O=C(O)CCN1CCc2ccccc2C1c1cccs1 (centres undefined)	-2.5%	1.1%
Cc1ccccc1NC(=O)NCC1CCN(c2ccc(S(=O)(=O)N3CCOCC3)cc2)CC1	10.1%	-4.2%
Cc1nnc(NC(=O)CSC2=NN3CCCC(=O)N=C3S2)s1	-6.7%	-2.8%
O=C(COC(=O)C1CCN(C(=O)c2ccc(Cl)cc2)CC1)NC1CCS(=O)(=O)C1 (centres undefined)	4.6%	4.5%
Cc1ccc(S[C@@H](CCN2CC[C@H](O)CCC2=O)c2ccccc2)cc1	nt	-6.6%
CCOc1ccccc1NC(=O)NC(C)c1ccncc1 (centres undefined)	nt	12.9%
CCCOCC1CC2(CC(C)(c3csc(N)n3)OC2=O)C(=O)O1 (centres undefined)	-0.2%	26.1%
Cc1ccc2nsnc2c1S(=O)(=O)NCCc1c(C)[nH]c2ccc(F)cc12	2.0%	-0.2%
N#Cc1ccsc1NC(=O)COc1ccc(-c2nnco2)cc1	-8.0%	-1.9%
Cc1cccc(OCC(=O)Nc2ccc(NC(=O)c3ccco3)c(C)c2)c1	6.2%	2.6%
COc1cccc(Nc2ncccc2C(=O)NCc2ccccc2)c1	1.1%	3.2%
Cc1ccc([C@@H]2[C@@H]3C(=O)N(C)C(=O)[C@@H]3[C@]3(C)C(=O)N(CC4CC4)CC(=O)N23)o1	nt	1.2%
O=C(CNC(=O)c1ccccc1Cl)N/N=C/C=C/c1ccccc1	0.0%	-10.7%
COc1ccc(CNC(=O)C(OC(=O)c2ccco2)c2ccccc2)cc1 (centres undefined)	nt	-5.1%
COc1cc(C(=O)Oc2cccc(C)c2)cc(OC)c1OC	-1.9%	6.4%
COc1ccc(C2Nc3ccccc3C(=O)N2O)cc1CN1CCOCC1 (centres undefined)	0.0%	-9.0%

Four compounds out of the list, ordered by length of the SMILES, low to high.
SMILES	TDP1 inh	N370S GC mod
O=C(O)c1nc(N2CCOCC2)nc(N2CCOCC2)n1	-10.0%[56.1 µM]	5.2%
CC(Oc1ccc(Br)cc1)C(=O)O/N=C(\N)c1ccncc1 (centres undefined)	-0.8%	-0.8%
CC(CNC(=O)c1ccc(OC2CCN(Cc3ccccn3)CC2)cc1)Oc1cccnc1 (centres undefined)	0.8%	4.0%
Cc1ccccc1NC(=O)NCC1CCN(c2ccc(S(=O)(=O)N3CCOCC3)cc2)CC1	10.1%	-4.2%

(listing goes on)
SMILES	TDP1 inh	N370S GC mod
O=C(CN1CCN(S(=O)(=O)c2cccs2)CC1)N1CCCCC1	4.2%	-2.7%
O=C(COC(=O)/C=C/c1cccs1)Nc1ccccc1Cl	6.0%	2.8%
Cc1cccc(OCC(=O)N(Cc2ccc(F)cc2)C2CCS(=O)(=O)C2)c1C (centres undefined)	0.0%	-6.8%
CCCCCC/C=N/Nc1nnc(Cc2ccc(OC)c(OC)c2)c(=O)[nH]1	nt	-5.2%
O=C(CC1Sc2ccccc2NC1=O)NCc1ccccc1 (centres undefined)	0.0%	17.4%
Cc1cccc(NC(=O)CSc2cc(C(=O)c3nccn3C)c3ccccc3n2)c1	2.2%	-1.2%
Cc1ccnc(NC(=O)CNC(=O)C23CC4CC(CC(C4)C2)C3)c1	nt	5.3%
COc1ccc(S(=O)(=O)N(C)C)cc1NC(=O)CSc1ncccn1	-2.5%	5.9%
Cc1csc(NC(=O)Cc2ccc(Br)cc2)n1	nt	-0.7%
CN(CC(=O)Nc1ccc(Cl)c(Cl)c1)C(=O)C1CCC1	-0.3%	nt
NS(=O)(=O)c1ccc(NC(=S)N2CCN(c3ccc(Cl)c(Cl)c3)CC2)cc1	4.5%	-0.3%
Nn1c(Nc2ccccc2)nc2sc3c(c2c1=O)CCC3	4.8%	-15.8%
O=[N+]([O-])c1cc(/C=N/Nc2nc(N3CCCCC3)nc(N3CCCCC3)n2)ccc1O	-2.3%	8.1%
CC(=O)Cc1nsc(NC(=O)c2ccc(-c3ccccc3Cl)o2)n1	7.6%	4.7%
COc1ccc(NC(=O)CN(C)CC(=O)Nc2cccc(C(C)=O)c2)cc1	nt	-0.4%
COc1cccc(CNC(=O)C2CCCN(S(=O)(=O)c3c(C)n[nH]c3C)C2)c1 (centres undefined)	-4.0%	-3.0%
COc1ccc(NC(=O)c2ccc([N+](=O)[O-])s2)c([N+](=O)[O-])c1	-12.5%	-7.9%
CCOC(=O)c1c(NC(=O)C2C3C=CC(C3)C2C(=O)O)sc2c1CC(C)CC2 (centres undefined)	0.0%	?
Cc1nc2ccccc2nc1CN1CCC(CO)(CC2CCCCO2)CC1 (centres undefined)	-2.7%	4.4%
CN(C)C(=O)COc1ccc2c(-c3ccccc3)cc(=O)oc2c1	nt	2.4%
Cc1oncc1C(=S)Nc1ccccc1	4.2%	-23.5%
COc1cc(N/C(N)=N/c2nc(C)cc(C)n2)c(OC)cc1Cl	-3.7%	-1.6%
O=C(O)c1cc2n(n1)C(C(F)(F)F)CC(C1CC1)N2 (centres undefined)	0.6%	-5.8%
Cc1nc2c(ccc3c2ccc2nc(C)sc23)s1	7.0%	4.2%
CCOC(=O)c1sc2nc(C)nc(N3CCN(c4ncccn4)CC3)c2c1C	-5.5%	11.5%

Compound profiles (already shown).
CC(=O)Cc1nsc(NC(=O)c2ccc(-c3ccccc3Cl)o2)n1 is listed as TDP1 inh: 7.6%; N370S GC mod: 4.7%
Cc1nc2ccccc2nc1CN1CCC(CO)(CC2CCCCO2)CC1 (centres undefined) is listed as TDP1 inh: -2.7%; N370S GC mod: 4.4%

Random excerpt: 2 compounds from above.
SMILES	TDP1 inh	N370S GC mod
Cc1cccc(NC(=O)CSc2cc(C(=O)c3nccn3C)c3ccccc3n2)c1	2.2%	-1.2%
Cc1nc2ccccc2nc1CN1CCC(CO)(CC2CCCCO2)CC1 (centres undefined)	-2.7%	4.4%

Taken from above.
`Cc1nc2c(ccc3c2ccc2nc(C)sc23)s1` in N370S GC mod → 4.2%
`O=C(CC1Sc2ccccc2NC1=O)NCc1ccccc1` (centres undefined) in N370S GC mod → 17.4%

More structures follow:
SMILES	TDP1 inh	N370S GC mod
Nc1nc2c(ncn2COC(CO)CO)c(=O)[nH]1	-2.7%	14.7%
CN(Cc1ccc(F)cc1)C(=O)CN1C(=O)c2ccccc2S1(=O)=O	-0.1%	nt
CCCC1CCc2c(c3ccccc3[nH]c2=O)O1 (centres undefined)	-4.7%	13.3%
Cn1c(C(=O)NC2CCCCCC2)cc2c(=O)n(C)c3ccccc3c21	-2.9%	11.0%
CC(C)(C)[C@H]1C=C(C(=O)NCc2ccccc2)O[C@@H](OCc2ccc(CO)cc2)C1	6.4%	?
O=C(NCc1ccco1)C1CCN(C(=O)c2ccc(Cl)cc2Cl)CC1	13.9%	-2.5%
CC(=O)N1CCN(c2ccc(NC(=O)c3ccccc3Cl)cc2)CC1	nt	-0.5%
C=CCOc1ccc(Br)cc1/C=C1\NC(=S)N(C(C)=O)C1=O	nt	3.0%
c1ccc2sc(-c3ccncc3)nc2c1	1.2%	23.3%
O=S(=O)(c1ccc(OCC(O)CNCc2ccco2)c(Cl)c1)N1CCOCC1 (centres undefined)	3.1%	?
COc1cc(C(=O)NNC(=S)NC(=O)/C=C/c2ccccc2)cc(OC)c1OC	8.2%	-4.4%
CN(Cc1ccco1)C(=O)c1cc2c(s1)-c1ccc(Cl)cc1S(=O)(=O)C2	5.2%	-12.9%
Cc1csc(NC(=O)Cc2ccc(F)cc2)n1	nt	-2.0%
Cc1cccc(N2CCN(C(=O)CCn3c(=O)c4cccn4c4cccnc43)CC2)c1C	-7.7%	nt
COc1ccc(C2(O)CCN(C(=O)c3ccc4c(c3)OCO4)CC2)cc1	3.1%	-4.5%
COC(=O)CCN(C(=O)C12CC3CC(CC(C3)C1)C2)c1ccccn1	-0.9%	-7.6%
